# KSHV LANA nucl: inhibitors of KSHV LANA-nucleosome binding, primary screen, biochemical, fluorescence polarization, FITC-LANA1-23, chicken nucleosomes; FITC-LANA1-23 / chicken nucleosome fluorescence polarization; stronger effect = lower value; z-score (no concentration beside the values); 51,000 tested, 0.3% active; AID 720717, 2013;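 active = both repeat wells score below -2 in polarization z-score versus plate sample wells, excluding overly bright wells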;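 also: 100 nL library stock added to about 30 µL; numbers are from one replicate; some results filed as inactive read as strong as hits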
#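 Assay system: purified chicken nucleosomes with FITC-labelled LANA N-terminal peptide (1-23) / Probe or stimulus: 50 nM FITC-LANA1-23 probe / Compound dosing: pin-transferred compound, 100 nL / Times: compound with peptide–nucleosome mix 10–45 min at room temperature / Technique: fluorescence polarization, 480 nm excitation, 535 nm parallel and perpendicular emission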
# Ab BasE inh: BasE siderophore enzyme inhibitors, primary screen, biochemical, Acinetobacter baumannii ATCC 17978, fluorescence polarization | purified BasE, fluorescence polarization binding displacement | inhibition, % (concentration not given with the values) | 84,000 tested, 0.1% active | AID 485350, 2010;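 active = both replicates above 25% with normal brightness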;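 also: 0% = negative plate control signal and 100% = positive plate control signal; stock transfer was 100 nL into about 30 µL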
# * hit, by the source's call; · = not tested or not shown. This is a subset. The share of hits here may be higher or lower than overall.
# Value order – KSHV LANA nucl	Ab BasE inh
CC(=O)NCc1ccc(C(=O)CSc2nnc(-c3ccc4c(c3)OCO4)n2-c2ccccc2)o1
  ·	0.1
Cc1cc(C(=O)Nc2nc(-c3ccccc3)c(-c3ccccc3)s2)no1
  0.347	2.3
Cc1noc(C(=O)N(C)C2CCCCC2)c1Cl
  -0.384	2.8
Cc1nn(C)c2[nH]c(C(F)(F)F)cc(=O)c12
  -1.06	-0.6
COc1ccc(N2C(=O)CC(c3ccccc3)C2=O)cc1 (stereo not given)
  0.438	1.2
N#Cc1c(SCC(=O)C23CC4CC(CC(C4)C2)C3)sc2c(=O)[nH]c(=O)[nH]c12
  0.328	7.5
C[n+]1cccc2ccc(O)cc21
  -6.72*	20.0
CN1C(=C2C(=O)CC(C)(C)CC2=O)Sc2ccccc21
  0.282	-1.6
CCN(C#N)c1ccc(Cc2ccc(N(C#N)CC)cc2)cc1
  0.087	0.6
Brc1cc(Br)cc(CN2CCSCC2)c1
  -0.244	·
CC1CC(C)CN(C(c2ccco2)c2sc3ncnn3c2O)C1 (stereo not given)
  0.86	-3.0
COc1ccc2sc(C3C(=O)c4cccnc4C3=O)nc2c1 (stereo not given)
  -1.1	·
COc1cc(OC)c(OC)cc1CN1CCN(c2cccc(C)c2C)CC1
  0.667	1.5
COc1ccccc1NC(=O)Nc1cc(C(C)(C)C)nn1-c1ccccc1
  ·	-0.2
CC1(C)C2CC=C(COCC(O)CNCc3ccccn3)C1C2 (stereo not given)
  ·	-0.8
Cn1c(=S)[nH]c2ccccc21
  ·	3.5
CCn1c(=N)c(C(=O)NC2CCCCC2)cc2c(=O)n3ccccc3nc21
  0.836	-2.1
O=C(O)CSCC(=O)Nc1cccc2ccccc12
  0.043	1.7
O=S(=O)(c1ccccc1)N(C1=NCCS1)S(=O)(=O)c1ccccc1
  ·	-0.1
Cc1cc(Cc2ccc(C(F)(F)F)cc2)c(=O)[nH]n1
  ·	0.5
O=C(OCC(=O)N1c2ccccc2Sc2ccccc21)C1=COCCO1
  ·	-0.9
C/C(=C\C(=O)NN)NNc1ncnc2ccccc12
  ·	8.3
c1ccc(OCc2nn[nH]n2)cc1
  ·	1.1
COC(=O)c1cc2c(ccn2-c2ccc(F)cc2)n1CC(=O)c1ccc(OC)cc1
  -1.31	2.7
O=C(O)c1c2c(nc3ccc(F)cc13)CCCC2
  -1.34	-0.4
Cc1cc(C)[n+]2c(n1)SC(C)C2 (stereo not given)
  1.13	0.2
CCc1nnc2c3c(-c4ccc(F)cc4)c(C)sc3ncn12
  ·	1.9
C[n+]1ccc(/C=C/c2ccc3c(c2)OCO3)c2ccccc21
  ·	1.0
CN=C1SC(CC(=O)NC)C(=O)N1C (stereo not given)
  -1.42	2.0
O=C(CCCN1C(=O)c2ccccc2C1=O)NC1=NCCS1
  ·	2.5
Cc1nn(-c2ccccc2)c2sc(C(=O)N(C)c3ccccc3)cc12
  ·	1.1
COc1ccc(Cl)cc1S(=O)(=O)N1CCC(C(N)=O)(N2CCCCC2)CC1
  0.233	-1.4
CCc1nnc(NC(=O)CCC(=O)N2CCC(O)CC2)s1
  0.256	-2.2
COc1ccc(CC(=O)N2CCN(c3ccccc3)CC2)cc1
  -1.54	2.1
C/C(=N\NC(=O)c1ccc(NS(=O)(=O)c2ccc(Br)cc2)cc1)c1ccc(C)o1
  ·	0.0
Cc1ccc(S(=O)(=O)NC2=NCN(C(C)C)CN2)cc1
  -0.585	2.5
CN1CCC(N(C)C(=O)c2ccc(Cl)c(S(=O)(=O)Nc3ccccc3C(=O)N(C)C3CCN(C)CC3)c2)CC1
  ·	1.2
CC(C)Cn1c(N)c(C(=O)COC(=O)[C@H](C)N=C2NS(=O)(=O)c3ccccc32)c(=O)n(C)c1=O
  ·	0.0
O=C(CSc1nc2ccccc2[nH]1)Nc1ccc(N2CCOCC2)cc1
  1.13	-0.2
C(=N\n1cnnc1)/c1ccc2c(c1)OCO2
  -0.161	0.3
CCn1c(=O)c2c(n3c(=S)[nH]nc13)-c1ccccc1CC21CCCCC1
  1.42	1.1
CCCCCC(=O)C1CCCCC1=O (stereo not given)
  -0.342	5.4
CCn1c(=O)cc(OCC(=O)NCc2ccc(OC)cc2OC)c2ccccc21
  -0.617	-0.4
C=C(C)CN1c2ccccc2Sc2ccccc21
  ·	1.9
Cc1cc(C(=O)CN2C(=O)NC3(CCSc4ccc(F)cc43)C2=O)c(C)n1CC1CCCO1 (stereo not given)
  ·	-2.2
O=C(O)c1ccc(Nc2nnc(-c3c[nH]c4ccccc34)o2)cc1
  ·	-0.8
CCN(c1ccc(NC(=O)c2cc(Cl)c3c(c2)OCCCO3)cc1)C(C)C
  ·	-1.4
COc1cccc(CNC(=O)CC2=NS(=O)(=O)c3ccccc3N2)c1
  -0.787	0.6
COc1cccc2c(=O)n(CC(=O)N3CCOCC3)ccc12
  -0.171	2.1
Oc1c(Cl)cc(Cl)cc1/C=N/NCCc1ccccn1
  0.374	3.2

# (listing goes on)
# Value order – KSHV LANA nucl	Ab BasE inh
COC(=O)c1ccccc1OCC#N
  -0.804	·
CC(Sc1nnc(CCNC(=O)c2ccccc2F)n1C)c1nc2ccccc2c(=O)[nH]1 (stereo not given)
  0.518	3.6
O=C(Nc1cccc2ccccc12)OCCn1nnnc1CN1CCOCC1
  0.165	-0.3
Cn1c(=O)c2c(ncn2CC(O)COc2ccccc2)n(C)c1=O (stereo not given)
  ·	0.3
CN(C)C(CNS(=O)(=O)c1ccc2c(c1)OCCO2)c1ccco1 (stereo not given)
  ·	-2.0
O=C(/C=C/c1ccco1)Nc1ccc(-c2nc3ccccc3[nH]2)cc1
  -1.39	-6.8
COc1ccc(CCNC(=O)C2OCCc3ccccc32)cc1OC (stereo not given)
  0.197	0.0
COc1ccc(-c2nc3scc(CCNS(=O)(=O)N(C)C)n3n2)cc1
  -0.729	-3.8
CCc1ccc(N2CC(C(=O)N3CCCC3)CC2=O)cc1 (stereo not given)
  -0.552	1.2
CN(C)c1nc(N)nc(Cn2c(=O)oc3ccc(Cl)cc32)n1
  1.65	-0.7
COc1cc(-c2cc(C(F)(F)F)n3ncc(C(=O)O)c3n2)cc(OC)c1OC
  0.081	1.6
CC(=O)Nc1ccc(NC(=O)Cn2c(=O)cc(C)c3c(C)nn(-c4cccc(F)c4)c32)cc1
  0.618	1.8
CNC(=O)COC(=O)c1ccc(C#N)cc1
  ·	1.2
CCCNC(=O)C1Sc2nnc(-c3ccccc3)n2NC1c1ccccc1 (stereo not given)
  -0.445	0.7
CC1=CCC2CC1C(C)OC2(C)C (stereo not given)
  -0.287	1.9
O=C(N=Nc1c(O)n(CN(Cc2ccccc2)Cc2ccccc2)c2ccccc12)c1ccco1
  -0.605	0.3
C/C(=C(\CCOP(=O)(O)O)SC(=O)c1ccccc1)N(C=O)Cc1cnc(C)nc1N
  0.812	1.4
NC(=O)CN1C(=O)S/C(=C\C=C\c2ccccc2)C1=O
  0.273	2.1
CNC(=S)NNS(=O)(=O)c1ccc2ccccc2c1
  -0.673	0.7
CCCCNC(=O)n1c(=S)oc2cc(Cl)ccc21
  0.658	0.3

# 4 compounds from above, arranged by the number in KSHV LANA nucl, lowest first.
canonical_smiles | KSHV LANA nucl
CN=C1SC(CC(=O)NC)C(=O)N1C (stereo not given) | -1.42
NC(=O)CN1C(=O)S/C(=C\C=C\c2ccccc2)C1=O | 0.273
CC(=O)Nc1ccc(NC(=O)Cn2c(=O)cc(C)c3c(C)nn(-c4cccc(F)c4)c32)cc1 | 0.618
Cc1cc(C)[n+]2c(n1)SC(C)C2 (stereo not given) | 1.13

# Further entries follow:
# Value order – KSHV LANA nucl	Ab BasE inh
CC(OC(=O)C1COc2ccccc2O1)C(=O)N(C)c1ccccc1 (stereo not given)
  ·	2.9
Cc1ccnc(SCc2cccc(C(=O)O)c2)n1
  -0.42	3.8
COCC(=O)OCc1cc(=O)oc2cc(O)ccc12
  ·	1.2
O=C(CCNS(=O)(=O)c1ccc2c(c1)OCCO2)Nc1nccs1
  ·	-0.1
O=C(c1ccccc1)N1CCNCC1
  0.126	4.6
Clc1cccc(Cl)c1CSc1cccs1
  ·	-1.8
O=C(C1CCN(S(=O)(=O)c2cccc3nsnc23)CC1)N1CCCCC1
  ·	1.6
Cn1c(SCc2ccccc2Cl)nc2ccccc21
  0.623	3.7
Cc1ccc(NC(=O)CSC2=NC(=O)CC(=O)N2)cc1
  -0.876	2.4
CN(C)c1ccc(CNc2ncn[nH]2)cc1
  -0.876	1.1
CCc1cc(Br)ccc1NS(=O)(=O)CC
  -0.105	0.1
O=C(NCc1ccco1)C1CC(c2ccc(Cl)cc2)=NO1 (stereo not given)
  0.425	2.7
COC(=O)c1cc(OC)c(OC)cc1NC(=O)C1CCCCC1
  ·	0.8
Cn1c(C(C#N)C(=O)C(Sc2ccccc2)c2ccccc2)nc2ccccc21 (stereo not given)
  ·	-2.8
CC1=CC(C)(C)n2c(O)c(N=NC(N)=S)c3cc(C)cc1c32
  0.017	2.0
C=CCn1cc(/C=N/N2C(=O)C3C4C=CC(C4)C3C2=O)c2ccccc21 (stereo not given)
  -0.307	-0.3
CCCCOc1ccc(C2(C)CC(=O)NC2=O)cc1 (stereo not given)
  1.79	1.4
Cc1ccc(C)c(C(=O)Cn2nc(C(=O)O)c3ccccc3c2=O)c1
  ·	5.8
O=C(NCC(c1cccnc1)N1CCOCC1)Nc1ccccc1 (stereo not given)
  -1.42	1.8
Cc1ccc(/C=N/NC(=O)c2ccc(NS(=O)(=O)c3cccs3)cc2)o1
  ·	0.9

# Going on with the list:
Structure | KSHV LANA nucl | Ab BasE inh
NC(=O)Nc1ccc(C(=O)OCc2cc(=O)n3cc(Br)ccc3n2)cc1 | · | -0.5
CCO/C=C(\C#N)c1nc(-c2ccccc2)cs1 | · | -12.9
Cc1cccc(OC(C)c2nc(-c3ccccc3)no2)c1 (stereo not given) | 2.79 | -3.3
CCC(CC)C(=O)N1CCCN(C(=O)C(CC)CC)CC1 | -0.739 | 2.5
COc1ccc(C2=NOC(CNC(N)=S)C2)cc1 (stereo not given) | 0.145 | 0.5
CCCCCSc1nc2ccccc2n1Cn1nnc2ccccc2c1=O | · | 1.9
CC(C)[C@H](NC(=O)c1ccccc1)C(=O)N1CCN(Cc2ccccc2)CC1 | · | 0.9
C/C(=N/NC(N)=O)c1ccc2c(c1)Cc1ccccc1-2 | 0.294 | -1.9
COc1cccc(OCc2nnc(SCC(=O)NC(C)(C)C)o2)c1 | 0.326 | -1.1
CC1=C(C#N)/C(=C/Nc2cccc(Cl)c2)CC(=O)N1 | -0.516 | ·
Cn1nc(C(C)(C)C)cc1NC(=O)Nc1cccc2ccccc12 | 1.97 | -4.4
COc1ccc(C(CNC(=O)Cc2cc(OC)c(OC)c(OC)c2)N2CCCC2)cc1 (stereo not given) | · | 0.7
CC(=O)N(c1ccc(C(F)(F)F)cc1)S(=O)(=O)c1ccc(N2C(=O)CCC2=O)cc1 | · | 1.1
Cc1ccc(C2C(C(=O)c3ccco3)=C(O)C(=O)N2CCCN(C)C)o1 (stereo not given) | 0.105 | 1.5
c1ccc(Oc2nc(Oc3ccccc3)nc(Oc3ccccc3)n2)cc1 | · | 0.3
CCC1=Nc2cc(C(=O)N3CCN(C(=O)c4ccco4)CC3)ccc2Sc2ccccc21 | 0.378 | -0.8

# Single records, from the list above. Screens in order: KSHV LANA nucl	Ab BasE inh
# COC(=O)c1ccccc1OCC#N is listed with -0.804	·
# CC1(C)C2CC=C(COCC(O)CNCc3ccccn3)C1C2 (stereo not given) is listed with ·	-0.8

# Two entries from above in a different format:
> CCC1=Nc2cc(C(=O)N3CCN(C(=O)c4ccco4)CC3)ccc2Sc2ccccc21
  KSHV LANA nucl: 0.378	Ab BasE inh: -0.8
> Cc1ccc(C2C(C(=O)c3ccco3)=C(O)C(=O)N2CCCN(C)C)o1 (stereo not given)
  KSHV LANA nucl: 0.105	Ab BasE inh: 1.5

# Carrying on:
Structure | KSHV LANA nucl | Ab BasE inh
O=C(NC1CCCCNC1=O)c1cnn(-c2ccccc2)c1C(F)(F)F (stereo not given) | · | 1.1
Fc1ccc(-c2cc(-c3nc4c5ccccc5ncn4n3)[nH]n2)cc1 | -0.272 | 1.1
N#Cc1ccc(COC(=O)c2cc(=O)[nH]c3ccccc23)cc1 | · | 3.4
C=CCN1C(=O)/C(=C/N(C(C)=O)c2ccccc2)SC1=S | 1.98 | 1.0
COc1ccc(C(=O)Nc2ccc(-c3n[nH]c(=S)o3)cc2)cc1OC | -0.838 | 5.7
NS(=O)(=O)c1ccc(CNC(=O)c2ccccc2C(F)(F)F)cc1 | · | 1.2
CCc1c(C)nc(SCC(=O)N(C(C)C)C(C)C)[nH]c1=O | -0.204 | 0.9
CCNC(=O)n1nccc1C(C)Oc1ccccc1 (stereo not given) | -0.055 | ·
O=C(CC1(C(F)(F)F)NCCN1)c1ccco1 | · | 3.3
N#Cc1ccccc1NC(=O)CN1CCN(S(=O)(=O)c2ccc(Br)s2)CC1 | · | 3.2
C(=Nc1ccccc1)c1ccc(-c2cccs2)s1 | 0.259 | 4.2
CCCCN1C(=O)c2ccc(C(=O)O)cc2C1=O | · | -0.7
Cc1cc2ccccc2nc1-c1ccccc1 | -0.41 | ·
N#Cc1ccc(C(=O)CSc2cccc[n+]2[O-])cc1 | · | 2.0
N#Cc1sc2nccc(Nc3ccccc3)c2c1N | 0.555 | -2.7
FC(F)(F)c1cccc(N2CCN(C3=Cc4ccccc4C3)CC2)c1 | · | 1.0

# Screening data from PubChem BioAssay.
